Compound activity (PubChem BioAssay)
GIV-Gai inh: inhibitors of GIV peptide binding to Galpha-i3, primary screen, biochemical, fluorescence polarization, FITC-GIV GBA peptide, rat Galphai3. Guanine nucleotide-binding protein G(i) subunit alpha-3 (Rattus norvegicus), P08753. 90 min; active compounds read low; scaled: aluminum fluoride 0%, vehicle 100%. percent of control (FP), % (test concentration not listed). 210,000 compounds, 0.42% hits;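 active = replicate mean at 85% of control or lower, very high polarization wells dropped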;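 note: lower values mean more displacement of the GIV peptide from Galpha-i3; wells of about 15 µL received 100 nL stock; the first replicate is given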
Target sequence (P08753 whole entry, looked up): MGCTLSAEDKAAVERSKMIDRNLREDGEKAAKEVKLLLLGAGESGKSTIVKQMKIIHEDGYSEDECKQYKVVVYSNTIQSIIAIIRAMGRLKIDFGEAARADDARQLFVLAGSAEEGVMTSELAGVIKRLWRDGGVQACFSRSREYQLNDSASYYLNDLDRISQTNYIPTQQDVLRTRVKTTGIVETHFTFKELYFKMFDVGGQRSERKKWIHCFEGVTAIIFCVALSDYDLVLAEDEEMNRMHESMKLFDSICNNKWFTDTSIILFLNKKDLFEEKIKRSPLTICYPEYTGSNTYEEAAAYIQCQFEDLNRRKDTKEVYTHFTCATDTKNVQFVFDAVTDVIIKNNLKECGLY
HCMV NEC inh: inhibitors of HCMV UL50-UL53 interaction, biochemical, HTRF | HCMV UL50-UL53 nuclear egress complex (human cytomegalovirus) | normalized percent inhibition | inhibition, % (concentration not given with the values) | 190,000 compounds, 0.15% hits | AID 1918969, 2023;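 active = both replicates at 50% or more, plus weaker picks with an unusually low signal ratio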;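 note: stock transfer was 100 nL into about 20 µL; 0% = negative control wells and 100% = wells with untagged competitor protein; inactives centre near -12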
Sa growth inh: S. aureus growth inhibition at 42 and 30 °C, primary screen, LtaS inhibitor project, RN4220, two temperatures | OD600, 20 h, 42 °C; active compounds read low | relative growth, % (no concentration beside the values) | 170,000 compounds, 0.53% hits | AID 720641, 2013;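 active = growth at 42 °C up to 50% and 20 or more points under that at 30 °C, or under 10% at both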;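 note: 300 nL library stock went into each well; scaled to the means of positive and negative controls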
Sa growth inh second temp: also measured in Sa growth inh; calls as there; relative growth, %; measured here: growth at 30 °C;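 optical density after 20 h as mean of two plates; 100% = untreated growth and lower means inhibition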
* hit, by the source's call; / = no result given; & = joins results of further samples.

SMILES	GIV-Gai inh	HCMV NEC inh	Sa growth inh	Sa growth inh second temp
Cc1cc(=O)cc(C)n1-c1ccc(F)cc1F	/	-24	105	85
O=C(OCc1nnc(-c2ccccc2)o1)c1cccc(S(=O)(=O)N2CCc3ccccc32)c1	/	-2	107	90
NC(=O)C1(N2CCCCC2)CCN(C(=O)C2CCCCC2)CC1	95	-4	61	87
Cc1ccc(N2CC(NC(=O)Cc3ccc(F)cc3)CC2=O)cc1 (stereo unspecified)	101	/	128	83
COc1cc(C)nc(N(Cc2ccccc2)S(=O)(=O)c2ccc(C)cc2)n1	97	0	/	/
c1ccc(Cn2nnc3c(N4CCc5ccccc54)ncnc32)cc1	101	-22	117	86
COc1ccc(CCNc2nc3c(c(=O)n(C)c(=O)n3C)n2Cc2ccccc2F)cc1OC	104	-24	/	/
CCc1ccccc1NC(=O)C(=O)NCC(c1cccnc1)N1CCc2ccccc21 (stereo unspecified)	104	-14	110	91
Cc1ccc(-n2nc3c(=O)n(CCCC(=O)N4CCCCC4)nc(C)c3c2C)cc1	108	-24	107	86
O=C(Nc1cccnc1)c1cccc(C(=O)Nc2cccnc2)c1	103	-5	107	75
CN1CCc2[nH]c3ccc(Cl)cc3c2C1	110	12	88	87
C1CCC(N2CCN(C3CCCC3)CC2)C1	98	-25	98	86
CCN(C(=O)Cn1cnc2c(nc3n2CCCCC3)c1=O)c1cccc(Cl)c1	105	-19	101	88
O=C(Sc1cccs1)c1csc(C2COc3ccccc3O2)n1 (stereo unspecified)	104	-9	0.4*	-0.5*
O=C(O)C1Cc2ccccc2CN1C(=O)c1ccccc1 (stereo unspecified)	110	-9	91	80
Cc1cccc(N2CCN(C(c3nnnn3C3CCCC3)C(C)C)CC2)c1C (stereo unspecified)	99	-20	98	92
NC(=O)CSc1ccc(-c2ccccc2)nn1	100	-3	87	92
O=C(C1CC(=O)N(c2ccc(OCc3ccccc3Cl)cc2)C1)N1CCOCC1 (stereo unspecified)	/	-20	95	91
O=C(COC(=O)c1ccccc1C(=O)c1ccccc1)NCc1ccccc1	/	4	110	101
O=C(Nc1ccc(F)cc1)[C@H](CSCc1ccccc1)N1Cc2ccccc2C1=O	104	-35	103	89
O=c1cc(CSC(=S)N2CCSCC2)c2ccccc2[nH]1	99	-14	101	86
CC(C)(C)c1sc(N)nc1-c1ccccc1	/	-4	118	98
O=c1ccc2cc3c(=O)n(-c4ccc(F)cc4)[nH]c3oc-2c1	108	-113	/	/
Cc1ccc(Nc2ccc3cc(S(=O)(=O)N4CCCCC4)ccc3n2)cc1F	105	/	96	89
CCC(=O)N/N=c1/sc2ccccc2n1C	99	-19	85	83
CCN(CC(O)c1cccc(O)c1)C(=S)Nc1ccc(S(=O)(=O)N2CCOCC2)cc1 (stereo unspecified)	/	-9	104	94
Cc1cc(C)c2c(=O)[nH]n(C3CCCCC3)c2n1	99	-10	100	90
Cc1ccc(OCC(=O)N(C)C)c(C)c1	/	-6	86	91
CC(Sc1nnc(C(C)NC(=O)c2ccccc2)n1C)C(=O)Nc1ccc2c(c1)OCO2 (stereo unspecified)	106	-7	109	90
C/C(=N\O)c1ccc2c(c1)OCCOCCOCCO2	/	-7	88	88
Clc1nc(NCc2ccco2)nc(Nc2nc(-c3ccccc3)cs2)n1	103	-8	/	/
COc1ccc(C(c2nnnn2C2CCCCC2)N2CCC(C)CC2)cc1OC (stereo unspecified)	100	-18	89	90
N#CCSc1nc2ccccc2c(=O)n1CCCC(=O)NCCc1ccccc1	102	4	100	90
Cc1nn(-c2ccc(F)cc2)c(Cl)c1/C=C/C(=O)N1CCC(C(N)=O)CC1	/	-35	67	89
C=CCn1c(C)cc(C(=O)CSc2nnc(-c3ccccc3F)n2C)c1C	/	-22	99	96
C#CCSCc1nc2ccccc2[nH]1	115	-7	101	72
COc1ccc(-c2cc(C(C)=O)c(C)n2CCC(=O)Nc2cccc(C)c2C)cc1	107	/	95	86
O=C1CC(=O)Nc2ccccc2N1	100	-18	86	81
COc1cc(N/C=C(\C#N)c2nc(-c3cc4cc([N+](=O)[O-])ccc4oc3=O)cs2)c(OC)cc1Cl	108	-7	/	/
Cc1ccc(CSc2nc3ccncc3n2Cc2ccc(C(=O)O)cc2)cc1	108	/	109	94

Rewritten as labelled records: entries from further up
COc1cc(N/C=C(\C#N)c2nc(-c3cc4cc([N+](=O)[O-])ccc4oc3=O)cs2)c(OC)cc1Cl
  GIV-Gai inh: 108
  HCMV NEC inh: -7
  Sa growth inh: /
  Sa growth inh second temp: /
Cc1ccc(CSc2nc3ccncc3n2Cc2ccc(C(=O)O)cc2)cc1
  GIV-Gai inh: 108
  HCMV NEC inh: /
  Sa growth inh: 109
  Sa growth inh second temp: 94

New compounds follow.
SMILES	GIV-Gai inh	HCMV NEC inh	Sa growth inh	Sa growth inh second temp
CCCCC(=O)Nc1ccc(S(=O)(=O)NC(C)(C)C)cc1	100	4	92	103
Cc1ccc2c(c1)C(Cc1ccccc1F)C(=O)N2 (stereo unspecified)	99	3	96	93
COc1ccc(-c2cc(-c3ccc4c(c3)NC(=O)CO4)nc3c2COc2ccc(C)cc2-3)cc1	107	-27	106	81
Cc1ccc(C(=O)Cn2c(C)csc2=Nc2ccccc2)cc1	107	/	119	91
Cc1cc(C)c(C#N)c(SCC(=O)Nc2cccc3cccnc23)n1	99	-6	/	/
CCOC(=O)/C=C(\C)N1N=C2c3ccc(OC)cc3CCC2C1c1ccc(OC)cc1 (stereo unspecified)	134	/	92	70
Cc1nc2nc(SCC(=O)N(C)Cc3ccccc3)nn2c(C)c1Cc1ccccc1Cl	104	-19	104	86
CC(C)(C)C1CCc2c(sc(NC(=O)c3cc(-c4ccc(F)cc4)on3)c2C#N)C1 (stereo unspecified)	109	6	83	95
CC1=C(C(=O)OCC2CCCCC2)C(c2ccc(Cl)cc2)CC(=O)N1 (stereo unspecified)	102	-4	100	91
Cc1cc(C)nc(SC(C)C(=O)O)n1 (stereo unspecified)	/	2	111	89
CCSc1ncc(-c2nnnn2-c2ccccc2)c(-c2ccccc2)n1	99	-8	100	91
CC1(C)CC2CC(C)(CN2C(=O)c2ccccc2NC(=O)c2ccco2)C1 (stereo unspecified)	/	-18	81	85
COc1cccc(C)c1OC(=O)c1cc(F)cc(Cl)c1	99	/	104	84
COc1ccccc1C1Nc2ccccc2-n2cc3c(=O)n(C)c(=O)n(C)c3c21 (stereo unspecified)	103	-13	/	/
O=c1ccc(-c2ccc3c(c2)OCO3)nn1Cc1ccc(F)cc1	107	-28	114	103
CC1CCN(C(=O)c2cc(-c3cccnc3)n(-c3ccccc3)n2)CC1	108	-19	/	/
COc1ccc(CCNC(=O)c2ccc3c(c2)CCN3S(C)(=O)=O)cc1	101	-10	108	92
O=C(CSc1ncn[nH]1)N1CCCCC1	98	-19	98	99
CCOC(=O)c1nc2cc(C)c(C)cc2nc1N1CCN(c2ccccn2)CC1	106	-34	/	/
Cc1ccc(-c2nnc(N3CCNC(=O)C3)c3ccccc23)cc1	/	-10	91	86

Sorted by molecular weight (smallest number first): 6 of the compounds above.
SMILES	GIV-Gai inh	HCMV NEC inh	Sa growth inh	Sa growth inh second temp
Cc1cc(C)nc(SC(C)C(=O)O)n1 (stereo unspecified)	/	2	111	89
Cc1cc(C)c(C#N)c(SCC(=O)Nc2cccc3cccnc23)n1	99	-6	/	/
CC1=C(C(=O)OCC2CCCCC2)C(c2ccc(Cl)cc2)CC(=O)N1 (stereo unspecified)	102	-4	100	91
CCOC(=O)/C=C(\C)N1N=C2c3ccc(OC)cc3CCC2C1c1ccc(OC)cc1 (stereo unspecified)	134	/	92	70
CC(C)(C)C1CCc2c(sc(NC(=O)c3cc(-c4ccc(F)cc4)on3)c2C#N)C1 (stereo unspecified)	109	6	83	95
Cc1nc2nc(SCC(=O)N(C)Cc3ccccc3)nn2c(C)c1Cc1ccccc1Cl	104	-19	104	86

New compounds follow
SMILES	GIV-Gai inh	HCMV NEC inh	Sa growth inh	Sa growth inh second temp
COc1cc2c(=O)n(Cc3ccco3)c(=O)n(CC(=O)Nc3ccc(F)cc3)c2cc1OC	104	-27	98	92
CCCCN(C)CCCNC(=O)c1cn(CC)c2ccc(S(=O)(=O)N3CCc4ccccc4C3)cc2c1=O	101	-18	114	81
CNS(=O)(=O)c1cccc(C(=O)OCC(=O)N2c3ccccc3NC(=O)C2(C)C)c1	/	-10	100	92
Cc1ccc(N2C(=O)CCS2(=O)=O)cc1S(=O)(=O)NCC(C)C	98	-8	/	/
COc1cccc(NC(=O)Nc2ccc3nc(N4CCN(C)CC4)cc(C)c3c2)c1	101&108	10	110	84
CC(C)=CCOc1ccc2c(C)cc(=O)oc2c1	/	11	92	98
Cc1[nH]n(-c2ccccc2)c(=O)c1C=Nc1cccc(N)c1	100	/	100	99
CC1CC(N(C(=O)c2ccc(F)cc2)c2ccccc2)c2ccccc2N1C(=O)c1ccc(F)cc1 (stereo unspecified)	103	2	/	/
COc1cc(OC)c(NC(=O)c2ccc3c(Cl)c4c(nc3c2)CCCC4)cc1Cl	99	-23	99	90
COc1ccc(C(=O)COC(=O)c2c3c(nc4ccccc24)CCN(C)C3)cc1	/	-24	111	94
C1CC(CCN2CCOCC2)CCN1	106	8	88	93
O=C1ON=C(c2ccccc2)C1C=C1CCCC1 (stereo unspecified)	106	-26	94	80
CCc1ccccc1NC(=O)Cn1nc(C(F)(F)F)c2c1CCCC2	103	-32	99	87
CCOC(=O)c1c(C)noc1/C(C)=N\OC(=O)c1ccccc1	100	-40	92	89
O=S(=O)(c1ccccc1)c1nc(-c2ccc(Cl)cc2)oc1NC1CC1	107	10	/	/
CN(C)Cc1c(O)ccc2c(=O)c(Oc3ccccc3)coc12	/	-20	107	90
Cc1onc(-c2ccccc2)c1CN1CCCCC1	102	-26	98	86
CCC(=O)Nc1cc2nn(-c3ccc(C)cc3)nc2cc1C	103	-50	99	88
CCc1cc(SCc2nnc(-c3ccccc3)o2)n2c(nc3ccccc32)c1C#N	/	-21	68	36
CCCCN(C)CCCNC(=O)c1cc(-c2ccc(Br)s2)nc2ccccc12	106	-93	98	55
CCOC(=O)c1[nH]c(C)c(CCC(=O)NCc2cccc(Cl)c2)c1C	105	/	109	82
C=CCN1C(=O)C(C(c2cccc([N+](=O)[O-])c2)C2C(=O)NC(=S)N(CC=C)C2=O)C(=O)NC1=S (stereo unspecified)	95	-62	/	/
CC1(C)C(=O)N(CC(=O)N2CCCC2)c2ccccc21	97	1	/	/
Oc1ccc(N=c2cc(-c3ccccc3)oc3ccc(Cl)cc23)cc1	101	/	93	105
Cc1csc(SCC(=O)NC(=O)NCc2ccco2)n1	/	-18	87	90
CC(NC(=O)NC(C)(C)C)c1ccccc1 (stereo unspecified)	104	-20	90	88
COC(=O)c1nc(NC(=O)c2ccccc2)n[nH]1	/	-28	105	97
CC1CC(C)CN(c2nnc(N)s2)C1 (stereo unspecified)	100	-19	95	90
CCOc1ccc(OCc2ccc(C(=O)OCc3ccccn3)o2)cc1	103	-5	107	97
COc1ccc(-n2nc(C(=O)O)cc2-c2ccccc2)cc1	102	1	124	73
COc1ccc(C2CC(=O)Nc3nc(N)[nH]c(=O)c32)cc1 (stereo unspecified)	97	8	/	/
COc1cccc(NC(=O)c2sc3[nH]c(=O)c(C(=O)O)cc3c2N)c1	102	-37	90	96
C#CC1(C)CCCC(C)(C)O1 (stereo unspecified)	105	-20	97	90
CCOc1ccc(S(=O)(=O)N(C)c2ccc(OCC(=O)OCc3c(C)noc3C)cc2)cc1	/	-16	95	87
Nc1nonc1-c1nc2ccccc2n1CCn1c(-c2nonc2N)nc2ccccc21	100	-22	79	94
CCCOc1ccc(C(=O)Nc2cc3c(cc2Sc2ccccc2)n(C)c(=O)c(=O)n3C)cc1	95	-43	/	/
CS(=O)(=O)c1cccc(C(=O)O)c1	/	-18	97	97
COCc1nc2ccccc2n1CCCOc1ccccc1C	108	-23	/	/
COc1ccc(C2C(=O)N(C3CCCCC3)CC(=O)N2CCC2=CCCCC2)cc1 (stereo unspecified)	102	/	82	84
COc1ccc(OC)c(CNC(=O)c2cc(C)nc3c2c(C)nn3-c2ccc(C)c(C)c2)c1	100	6	/	/

Whole records, quoted from the list:
CCCOc1ccc(C(=O)Nc2cc3c(cc2Sc2ccccc2)n(C)c(=O)c(=O)n3C)cc1 is listed with GIV-Gai inh = 95; HCMV NEC inh = -43; Sa growth inh = /; Sa growth inh second temp = /
COc1ccc(C2CC(=O)Nc3nc(N)[nH]c(=O)c32)cc1 (stereo unspecified) is listed with GIV-Gai inh = 97; HCMV NEC inh = 8; Sa growth inh = /; Sa growth inh second temp = /

New compounds follow:
SMILES	GIV-Gai inh	HCMV NEC inh	Sa growth inh	Sa growth inh second temp
Cc1nc(SCc2cc(=O)c3cccc(F)c3[nH]2)n[nH]1	103	/	76	89
O=C(c1sc2ncccc2c1-n1cccc1)N1CCN(c2ccc(F)cc2)CC1	103	9	/	/
O=c1c(-c2nn[nH]n2)coc2ccccc12	102	-45	104	88
Cc1c(-n2cc(C(=O)O)c(=O)c3c(F)c(F)c(F)c(F)c32)c(=O)n(-c2ccccc2)n1C	99	/	92	92
COc1cccc(-c2noc(Nc3ccccc3)n2)c1	102	-33	90	82
CN(C)CCSc1nc(-c2cccs2)cc(-c2ccc(Cl)cc2)c1C#N	/	-5	102	106
NC(CC1CCCCC1)C(O)C(F)(F)F (stereo unspecified)	/	18	98	99
